Cruzain noTriton: cruzain (T. cruzi) inhibition without detergent; P25779; purified cruzain, Z-FR-AMC fluorescence, no detergent; Potency, µM, for inactives: max response, negative = inhibition, most hits filed as inhibitors; 200,000 compounds, 2.3% hits; AID 1476;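 also: plate controls were enzyme without inhibitor for no effect and buffer without enzyme for full effect; nearly all actives have a fitted effect of over 40% in size; top concentration of the series not given in the record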
Target sequence (P25779 123-467 limits assumed): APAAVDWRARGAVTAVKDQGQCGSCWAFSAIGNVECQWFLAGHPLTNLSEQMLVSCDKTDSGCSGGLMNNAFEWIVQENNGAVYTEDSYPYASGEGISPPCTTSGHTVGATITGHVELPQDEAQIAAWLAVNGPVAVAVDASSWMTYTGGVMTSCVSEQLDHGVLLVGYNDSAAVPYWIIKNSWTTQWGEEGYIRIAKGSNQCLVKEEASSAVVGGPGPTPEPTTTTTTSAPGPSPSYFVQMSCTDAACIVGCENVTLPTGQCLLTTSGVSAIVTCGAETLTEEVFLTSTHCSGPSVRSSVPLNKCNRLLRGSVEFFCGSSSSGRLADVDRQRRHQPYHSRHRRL
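Detergent-free condition (0.00005% Triton X-100) in acetate buffer pH 5.5 with DTT. 1.5 nM enzyme and compound were pre-mixed 15 min, then 2 uM Z-FR-AMC substrate added; reaction progress from fluorescence change between first and third reads (60 s).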
2A StopGo: lowers the luciferase signal of an FMDV 2A StopGo reporter; 410,000 compounds, 1.2% hits; AID 1159524; human cells with a luciferase reporter of 2A StopGo recoding; control for the full effect not named in the record; Potency, µM (top dose mostly 57.9 µM), for the others: at the highest dose signal change, negative = less light; active = well fitted falling curve with a large enough effect; inconclusive = small, poorly fitted or top-dose-only effect; inactive = no such curve, though single readings can be large or run the other way; tested in HEK293T cells; also: % is scaled to controls: 0 for no effect and ±100 for the full control effect; nearly all actives have a fitted effect of over 45% in size; luciferase light after 4 h
Cruzain inh Det: blocks cruzain activity in presence of Triton detergent | P25779 | purified cruzain, Z-FR-AMC fluorescence, 0.01% Triton | Potency, µM, inactives show max response, negative = inhibition, usual class: inhibitors | 200,000 compounds, 0.43% hits;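 also: plate controls were neutral wells for no effect and buffer without enzyme for full effect; nearly all actives have a fitted effect of over 40% in size; top concentration of the series not given in the record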
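Z-FR-AMC hydrolysis (2 uM substrate) by cruzain (1.5 nM) monitored kinetically at ex 360/em 450 nm after 15 min room-temperature compound exposure; 0.01% Triton X-100, pH 5.5, 5 mM DTT.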
Marburg entry inh: blocks Marburg virus binding to or entry into cells; Marburg virus pseudotyped entry inhibition, cell reporter; control for the full effect not named in the record; about a third of the inactives were read at about 46 µM; Potency, µM (highest dose often 37.8 µM), inactives show at the top dose activity change, negative = inhibition, most hits filed as inhibitors; 300,000 compounds, 1.8% hits; AID 540276; active = well fitted inhibition curve with a large enough effect; inconclusive = small, poorly fitted or top-dose-only effect, or effect the other way; inactive = flat fitted curve, though single readings scatter; tested in HEK293 cells; about a fifth of its hits are not listed in these tables; also: % is scaled to controls: 0 for no effect and ±100 for the full control effect; luciferase read-out
SARS PLP yeast: SARS-CoV PLP inhibition in yeast | S. cerevisiae expressing SARS-CoV PLpro, growth rescue; control for the full effect not named in the record | Potency, µM (highest dose often 32.9 µM), inactives show at the highest dose activity, positive = growth rescue | 330,000 compounds, 0.19% hits; active means well fitted rising curve with a large enough effect; inconclusive means small, poorly fitted or top-dose-only effect; inactive means no such curve, though single readings can be large or run the other way; also: 0% is about no effect; nearly all actives have a fitted effect of over 55% in size; growth read by luminescence after 48 h
RE007 growth inh: less growth of the S. pombe RE007 Vpr strain | S. pombe RE007 Vpr strain, BacTiter-Glo ATP luminescence, 24 h; control for the full effect not named in the record | Potency, µM (titrated, usually from 92.2 µM), for inactives: top-dose activity change, negative = less growth | 360,000 compounds, 0.21% hits; active = well fitted falling curve with a large enough effect; inconclusive = small, poorly fitted or top-dose-only effect; inactive = no such curve, though single readings can be large or run the other way;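 also: % is scaled to controls: 0 for no effect and ±100 for the full control effect; nearly all actives have a fitted effect of over 50% in size; the assay follows cell death caused by Vpr and the record does not say whether a fall means rescue or toxicity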
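Fission yeast RE007 carrying one integrated HIV-1 vpr copy, seeded at OD 0.01 in PMG+AL medium with 23 nL pinned compound. Grown 24 h at 30 degrees; viability read by BacTiter-Glo luminescence after 5 min.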
LASV entry inh: Lassa virus entry inhibition | Lassa virus pseudotype entry inhibition, cell reporter; control for the full effect not named in the record | Potency, µM (doses to about 37.9 µM), inactives show top-dose activity change, negative = inhibition, most hits filed as inhibitors | 300,000 compounds, 1.2% hits; active means well fitted inhibition curve with a large enough effect; inconclusive means small, poorly fitted or top-dose-only effect, or effect the other way; inactive means flat fitted curve, though single readings scatter; tested in HEK293 cells; also: % is scaled to controls: 0 for no effect and ±100 for the full control effect; nearly all actives have a fitted effect of over 50% in size; luciferase read-out
NS1 inh: inhibitors of influenza NS1 protein function; S. cerevisiae slowed by influenza A NS1, growth recovery by OD600; Potency, µM (doses to about 46.1 µM), inactives show at the highest dose activity, positive = more growth; 270,000 compounds, 0.4% hits; AID 2326; active means well fitted rising curve with a large enough effect; inconclusive means small, poorly fitted or top-dose-only effect; inactive means no such curve, though single readings can be large or run the other way; also: nearly all actives have a fitted effect of over 50% in size
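A cell-based growth assay was used: compounds that relieve NS1-induced slow growth of budding yeast raise OD600. Assay medium was yeast nitrogen base with ammonium sulphate and -URA supplement, pH 6.0, with 2% galactose.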
* = called active by the depositor; ? = inconclusive; / = not tested or not shown; [ ] = dose if it differs, or a comment. Unless noted, calls follow the shape of the dose curve; as a rule, active = well fitted curve in the direction sought with a large enough effect; inconclusive = small, poorly fitted or top-dose-only effect, or another doubt; inactive = no such curve, though single readings can be large; an effect the other way counts as inactive or inconclusive. Potency is read from the fitted curve at half-maximal effect.

SMILES	Cruzain noTriton	2A StopGo	Cruzain inh Det	Marburg entry inh	SARS PLP yeast	RE007 growth inh	LASV entry inh	NS1 inh
C1=C(CCNCC2CC2)CCCC1	-10%	9%	0.5%	?	0%	0%	5%	10%
CCOC(=O)/C(C#N)=N\Nc1cc(Cl)ccc1OC	/	-15%	/	/	0%	2%	/	-8%
Cc1ccc(S(=O)(=O)NC(=O)N2CCCC2)cc1	/	-8%	/	27%	/	-2%	-1%	/
CCn1c(-c2cc(Br)ccc2O)n[nH]c1=S	/	/	/	8%	/	0%	13%	-19%
c1ccc(OCCCc2nc(-c3ccncc3)no2)cc1	6%	/	0.5%	-23%	-12%	-3%	13%	-38%
COc1ccc(S(=O)(=O)NC(N)=NCCc2ccccc2OC)cc1	/	-7%	/	-13%[46.1 µM]	3%	0%	?	/
Clc1ccc(OCc2nc3ccccc3n2Cc2ccccc2)c(Cl)c1	-5%	43%[activator]	-3.1%	/	/	/	14%[46.1 µM]	/
N#CCc1nc2ccccc2c(=O)[nH]1	/	-13%	/	0%[46.1 µM]	1%	18%	17%	5%
CC(C)CN1C(=O)c2ccc(NC(=O)c3ccccc3F)cc2C1=O	-3%	40%[activator]	-3.4%	6%	5%	12%	4%	-4%
S=c1[nH]nc(Cc2noc3ccccc23)n1-c1ccccc1	/	-21%	/	-5%	2%	22%	-13%	6%
COc1ccc(C(=O)Nc2ccc3nc(SCC(=O)N(C)c4ccccc4)sc3c2)cc1	3%	35µM*	0.1%	?	/	/	?	/
CNC1(c2ccc(F)cc2)CCCCC1	/	-15%	/	16%	/	14%	13%	/
Cc1ccc(SCC(=O)OCn2nnc3ccccc3c2=O)cc1C	8%	-1%	-21%	-6%	-29%	?	5%	0%
CN(CCc1ccccc1)C1CCCN(S(=O)(=O)CC(F)(F)F)C1 (centres undefined)	/	-3%	/	0%[46.1 µM]	5%	4%	-3%[46.1 µM]	3%
S=C(Nc1cccc(Cl)c1)N1CCOCC1	1%	26%	1.1%	?	-1%	8%	1%	-9%
CCOC(=O)c1sc(N2C(=O)C(O)=C(C(=O)c3ccco3)C2c2ccco2)nc1C (centres undefined)	/	-5%	/	-17%[46.1 µM]	-2%	-11%	-4%	15%
O=C(NCCc1cccs1)c1ccc(Cl)cc1	/	-10%	/	?	-2%	84%	5.6µM*	-3%
O=C(C1CC(=O)N(c2ccc(Cl)cc2)C1)N1CCN(Cc2ccc3c(c2)OCO3)CC1 (centres undefined)	/	-28%	/	-27%[46.1 µM]	0%	-4%	?	-5%
CCC(C)(C)NC(=O)C(c1cccc(OC)c1OC)N(CCOC)C(=O)CCC(=O)Nc1cc(C)on1 (centres undefined)	/	-4%	/	-14%[46.1 µM]	1%	-5%	22%[46.1 µM]	-2%
C=CCn1c(SCC(=O)Nc2ccccc2OC)nnc1-c1ccccn1	0%	?	0.3%	?	-4%	14%	?	-4%
CCc1ccc2c(c1)c(N=NC1=NC(=O)CS1)c(O)n2C	-1%	-6%	-9.3%	10%	0%	0%	2%	-47%
NC(=O)c1cccn(Cc2ccc(C(F)(F)F)cc2)c1=O	/	?	/	?	-9%	17%	?	-7%
Cc1cccc(Cc2c(C)nc3nc(SCc4cccc(F)c4)nn3c2C)c1	-8%	-13%	-5.3%	/	/	/	1%[46.1 µM]	/
O=C(CSc1ncn[nH]1)Nc1cccc2ccccc12	-8%	9%	5.6%	1%	/	5%	3%	3%
COc1cccc(NC=C2C(=O)OC(C)(C)OC2=O)c1	-9%	0%	1.9%	?	-6%	8%	-21%	-1%
CCOCc1nnc(NC(=O)c2cccc(OC)c2)s1	/	66%[activator]	/	/	-1%	-1%	/	-8%
FC(F)(F)c1nc(Sc2ncccc2C(F)(F)F)n[nH]1	/	-10%	/	/	1%	-16%	/	-39%
CCOC(=O)N/N=C/c1ccc(OCCSc2ccc(Cl)cc2)c(OC)c1	26%	?	-3.0%	-27%	12%	-15%	?	-1%
Cc1cccc(NS(=O)(=O)c2ccc3[nH]c4c(c3c2)CCCCCC4)c1	-4%	27%	-4.7%	/	/	/	-20%[46.1 µM]	/
O=C(c1cc(COc2ccc(F)cc2Cl)on1)N1CCCCCCC1	/	3%	/	/	-2%	-6%	/	-17%
Cc1ccc(CCNC(=O)CCCn2c(=O)c3ccccc3n(Cc3ccccc3C)c2=O)cc1	-2%	-15%	-2.4%	-12%[46.1 µM]	/	/	-27%[46.1 µM]	/
O=C(Cn1c(=O)oc2cc(S(=O)(=O)N3CCCCC3)ccc21)NCc1ccc(Cl)cc1	?	-27%	-6.4%	-26%[46.1 µM]	/	/	/	/
COc1cc(NC(=O)c2ccc(Cl)cc2)c(OC)cc1NC(=O)CN1CCCCC1	/	-17%	/	-27%[46.1 µM]	3%	-24%	-22%	/
CSc1ccccc1NC(=O)C(C)N1C(=O)c2ccccc2S1(=O)=O (centres undefined)	/	-14%	/	-23%	-5%	-11%	4%	/
CS(=O)(=O)N1CCN(c2ccccc2NC(=O)c2cc(Br)ccc2Cl)CC1	/	-19%	/	-12%[46.1 µM]	0%	21%	1%[46.1 µM]	-5%
COc1ccc(S(=O)(=O)N2CCCCCC2)cc1NC(=O)CC1OC(=O)c2ccccc21 (centres undefined)	/	8%	/	-1%	1%	-20%	12%	/
Cc1ccc(S(=O)(=O)/N=C(\c2ccccc2)N(C)S(=O)(=O)c2ccc(C)cc2)cc1	0%	-16%	-2.4%	-11%	-3%	-5%	-4%	-4%
CC1(C)OC(=O)C(=CNc2cccc(C(=O)O)c2)C(=O)O1	-3%	47%[activator]	-4.8%	-2%	3%	3%	8%	2%
CCc1cc2c(cc3c(=O)n(CC(=O)NC4CCC(C)CC4)ncn32)s1 (centres undefined)	-3%	5%	-1.7%	-10%[46.1 µM]	/	/	/	/
Cc1ccc(C)n1-c1c(C(=O)NCCCN2CCN(c3ccc(F)cc3)CC2)sc2ncccc12	0%	?	-2.3%	/	/	/	-22%[46.1 µM]	/
COCCNC(=O)C(=O)NNC(=O)c1ccccc1OC	/	11%	/	3%[46.1 µM]	0%	3%	?	0%
O=C1C2C3C=CC(C3)C2C(=O)N1CCN1CCN(S(=O)(=O)c2ccc3ccccc3c2)CC1 (centres undefined)	?	?	-1.2%	2%	1%	-19%	?	-35%
CCCCn1c(SC(C)C(N)=O)nc2cc(C(=O)OC)ccc2c1=O (centres undefined)	-1%	-2%	9.9%	7%	14%	-1%	-4%	2%
CSc1[nH]c(=O)c(C(=O)O)cc1C#N	-4%	2%	1.2%	15%	3%	-11%	3%	4%
CCCn1ncc(CN2CCN(Cc3ccsc3)C(CCO)C2)c1C (centres undefined)	/	-4%	/	1%[46.1 µM]	0%	3%	0%[46.1 µM]	-1%
O=C(c1noc2c1CSc1ccccc1-2)N1CCN(c2ccc(Cl)cc2)CC1	/	-4%	/	/	-10%	-10%	/	12%
O=c1[nH]c(=O)n(C2CCCCC2)c(O)c1C1=Nc2ccccc2SC(c2ccc(Cl)cc2)C1 (centres undefined)	?	41%[activator]	-9.2%	-4%[46.1 µM]	/	/	2%[46.1 µM]	/
Cn1c(=O)c(C(=O)COc2ccc(C#N)cc2)c(N)n(Cc2ccccc2)c1=O	/	-4%	/	-19%[46.1 µM]	1%	39%	-7%[46.1 µM]	/
Cc1nn(-c2ccc(F)cc2)c(-n2cccc2)c1C(=O)N1CCN(c2ccc(F)cc2)CC1	?	?	-9.2%	/	/	/	9%[46.1 µM]	/
CSCC[C@H](NC(=O)OC(C)(C)C)C(=O)N1CCC(C(=O)NCC(=O)Nc2ccc(C)cc2)CC1	/	-5%	/	/	-1%	-4%	/	-3%
CCN(CCNC(=O)C1CCN(S(C)(=O)=O)CC1)c1ccccc1	2%	/	4.7%	-2%	3%	3%	-5%	-13%
COc1cccc(NC(=O)c2sc3nc(C)c(C(=O)Nc4ccc(C)cc4C)c(-c4ccccc4Cl)c3c2N)c1	?	0%	-4.8%	?	/	/	-9%[46.1 µM]	/
C=CCSc1nc(=O)n2cccc(C)c2n1	-9%	11%	0.2%	13%	-2%	-14%	0%	-21%
Cc1ccc(N2CCN(C(=O)N3CCCC3)CC2)cc1C	1%	21%	8.1%	0%	-5%	17%[3.69 µM]	-1%	-110%
CCCN1C(=O)c2ccc(C(=O)Nc3cc(C)on3)cc2C1=O	4%	39%[activator]	5.8%	0%	4%	-1%	13%	-4%
Cc1cc2c(c(=O)n1Cc1ccco1)C(c1ccccc1)C(C#N)=C(N)O2 (centres undefined)	-4%	-11%	1.0%	-10%	9%	-7%	-24%	1%
Cc1ccc(-n2cc(-c3ccc([N+](=O)[O-])cc3)[nH]c2=S)c(C)c1	?	-15%	-15%	0%	4%	0%	0%	6.3µM*
O=C(N/N=C/c1cccc([N+](=O)[O-])c1)c1cc(-c2ccccc2)nc2ccccc12	?	?	-3.6%	5%	-5%	5%	1%	4%
